Assay outcomes from PubChem BioAssay.
Six1-Eya2 blk: inhibitors of human Six1/Eya2 interaction; Q15475+O00167; AlphaScreen GST-Six1/His-Eya2 binding, biochemical; active compounds read low; control for the full effect not named in the record; activity change, % (concentration not given with the values); hit rate 0.56% among 360,000; in the data active = activity change below about -65%; inconclusive = about -30% to -65%; inactive = above about -30%; further: on the % scale 0 is the no-effect control and ±100 the full control effect
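GST-Six1 + His-Eya2 (5X stock: 250/500 nM); Tris pH 8.0, 300 mM NaCl, 0.05% BSA, 0.02% Tween 20; GSH donor/Ni acceptor beads; 1 h 37 °C dark; AlphaScreen readout.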
D2 PAM: potentiates the human D2 dopamine receptor allosterically; hit rate 0.23% among 360,000; P14416; AID 624464; DiscoveRx D2 beta-arrestin cells, luminescence, 90 min; 100% = 57 uM dopamine signal; potentiation, % (concentration not given with the values); active = potentiation of 50% or more; inconclusive = 30% to 50%; inactive = 30% or less;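 further: compound concentration not given in the record; tested on top of an EC20 dose of dopamine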
Target sequence (P14416 whole entry, looked up): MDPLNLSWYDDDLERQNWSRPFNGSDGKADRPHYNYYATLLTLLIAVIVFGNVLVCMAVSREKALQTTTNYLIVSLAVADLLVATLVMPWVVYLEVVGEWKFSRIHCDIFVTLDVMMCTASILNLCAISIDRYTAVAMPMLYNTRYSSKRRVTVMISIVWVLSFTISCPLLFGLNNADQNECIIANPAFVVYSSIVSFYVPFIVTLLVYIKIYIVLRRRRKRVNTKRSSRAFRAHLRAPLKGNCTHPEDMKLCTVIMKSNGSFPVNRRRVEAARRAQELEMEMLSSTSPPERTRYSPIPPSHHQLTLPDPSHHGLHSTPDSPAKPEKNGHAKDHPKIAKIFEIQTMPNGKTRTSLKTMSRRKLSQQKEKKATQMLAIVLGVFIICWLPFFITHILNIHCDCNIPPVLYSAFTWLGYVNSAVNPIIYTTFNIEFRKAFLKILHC
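PathHunter beta-arrestin assay in DiscoveRx D2 cells. Compounds were added with an EC20 of dopamine (50 nM final) for 90 min at 37 deg C. Luminescence was read 1 h after detection reagent, with 57 uM dopamine as the EC100 control.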
CtBP-E1A blk: inhibitors of CtBP/E1A interaction. AlphaScreen GST-E1A/His-CtBP binding, 1536-well; active compounds read low; control for the full effect not named in the record. activity change, % (test concentration not listed). hit rate 0.49% among 340,000; in the data active means activity change below about -65%; inconclusive means about -30% to -65%; inactive means above about -30%; further: on the % scale 0 is the no-effect control and ±100 the full control effect
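Steps: dispense buffer (Tris pH 8.0, NaCl 300 mM, TCEP 1 mM, BSA, Tween 20); add 5X protein mix (GST-E1A, His-CtBP, 125 nM each); pin 23 nL compound; 2 h at 37 °C, dark; add 5X beads (50 ug/mL); 1 h; read.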
gsp antagonist: antagonizes gsp, the McCune-Albright syndrome mutation; Potency, µM (titrated, usually from 76.9 µM), inactives show at the top dose activity change, negative = inhibition, hits mostly inhibitors; AID 624288; gsp-mutant cells, cAMP HTRF, 30 min; control for the full effect not named in the record; hit rate 0.4% among 340,000; active = falling curve of any shape with a large fitted effect; inconclusive = falling curve, mostly with a smaller effect; inactive = flat or rising curve; cell line not stated here;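 further: intracellular cAMP measured with PDE inhibitor Ro 20-1724 present during compound exposure; potency means the concentration at half of the fitted maximal effect; on the % scale 0 is the no-effect control and ±100 the full control effect; nearly all actives have a fitted effect of over 65% in size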
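Cells in G418 medium, seeded 16-24 h, 37C; buffer exchange to DPBS + 1 mM CaCl2, 0.5 mM MgCl2, 0.05% BSA; cpds in DMSO + […] (300 uM stock), 30 min 37C; HTRF cAMP detection.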
gsp agonist: agonists of gsp mutant (McCune-Albright syndrome). gsp mutant cells, cAMP HTRF, 30 min; control for the full effect not named in the record. Potency, µM (series often up to 76.9 µM), for inactives: at the top dose activation (cAMP increase), actives largely listed as activators. hit rate 0.13% among 340,000; active = well fitted activation curve with a large enough effect; inconclusive = small, poorly fitted or top-dose-only effect, or another doubt; inactive = no such curve, though single readings can be large or run the other way; cell line not stated here;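 further: phosphodiesterase inhibitor Ro 20-1724 added with compounds to block cAMP breakdown; potency means the concentration at half of the fitted maximal effect; nearly all actives have a fitted effect of over 60% in size; about a fifth of the inactives were tested at one dose only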
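Cells stably selected in G418 were plated at 2000/well, grown 16-24 hr, then given compounds in DMSO with the PDE inhibitor […] (300 uM solution added) for 30 min at 37C; cAMP was read by HTRF.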
D2 agonist: human D2 receptor agonism in beta-arrestin assay; DiscoveRx PathHunter D2 beta-arrestin, luminescence, 90 min; 100% = 57 uM dopamine signal; activation, % (concentration not given with the values); hit rate 0.084% among 360,000; AID 624465; in the data active = activation above about 40%; inconclusive = about 15% to 40%; inactive = below about 15%; further: compound concentration not given in the record; the text of the record calls up to 30% inactive
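Agonist mode: compounds alone added to overnight-plated D2 PathHunter cells for 90 min at 37 C, with 57 uM final dopamine (EC100) defining full response. Beta-arrestin recruitment detected by chemiluminescent reagent, read after 1 h at ambient temperature.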
An asterisk follows results filed as active; ? = inconclusive; . = not tested or not shown; [ ] = remark or other dose.

1: O=C1CCN(Cc2ccccc2)CCN1[C@H](CSc1ccccc1)c1ccccc1
2: COc1ccc(/C=N/NC(=S)NC2CCS(=O)(=O)C2)cc1 (centres undefined)
3: Cc1cc(=O)oc2c(C)c(OCC(=O)NCCCN3CCOCC3)ccc12
4: CCC(=O)c1ccc(OCC(=O)Nc2nn3cnnc3s2)cc1
5: CCOC(=O)[C@H]1Nc2ccc(Cl)cc2[C@@H]2[C@H]1C1CC(c3ccccc31)N2C(=O)OCc1ccccc1 (some centres undefined)
6: CS(=O)(=O)/C(C#N)=C/c1cccn1S(=O)(=O)c1ccccc1
compound no.,1,2,3,4,5,6
Six1-Eya2 blk,0,-3,-5,0,-4,-1
D2 PAM,5,-6,-8,-9,-10,-3
CtBP-E1A blk,3,9,-11,-3,-14,-19
gsp antagonist,7%,10%,14%,-19%,.,1%
gsp agonist,.,-6%[15.4 µM],38%,-24%,.,9%[15.4 µM]
D2 agonist,4.4,0.2,-8.1,-0.7,-6.9,2.2

7: Cc1cccc(-c2cc3nc4c(c(N5CCC6(CC5)OCCO6)n3n2)CCCC4)c1
8: CCOC(=O)c1ccc(NC(=O)CCNc2c(N3CCCC3)c(=O)c2=O)cc1
9: O=C(NNC(=O)[C@H]1CC=CC[C@H]1C(=O)O)c1ccc(Cl)cc1Cl
10: COc1ccc(NC(=O)c2c(C)nn(Cc3ccccc3)c2C)cc1S(=O)(=O)N(C)C
11: Cc1nccn1-c1cc(C(C)(C)C)nc2c(-c3ccccc3)cnn12
12: CC(=O)c1ccc(NC(=O)C2CCCN2S(=O)(=O)c2cccs2)cc1 (centres undefined)
compound no.,7,8,9,10,11,12
Six1-Eya2 blk,3,3,0,-10,-7,-7
D2 PAM,0,1,-4,-8,-10,3
CtBP-E1A blk,-20,2,-3,-4,-1,5
gsp antagonist,1%,11%,1%,-1%,-25%,9%
gsp agonist,-11%,23%,6%[15.4 µM],5%[15.4 µM],-11%[15.4 µM],-17%[15.4 µM]
D2 agonist,-0.3,-8.5,0.8,-1.8,-4.9,-3.9

13: O=C(NCCN1CCOCC1)c1cccc2c1C(=O)c1ccc(N3CCCC3)cc1S2(=O)=O
14: OC(CNCCc1ccc(C(F)(F)F)cc1)COc1ccc2ccccc2c1 (centres undefined)
15: CC(C)c1ccc(C(=O)Nc2nnc(S(=O)(=O)N3CCCCC3)s2)cc1
16: CCOc1cccc(/C=C2/NC(=O)N(CC(=O)Nc3cccc(C)c3)C2=O)c1O
17: CC1CCN(C(=S)c2cn(Cc3ccccc3F)c3ccccc23)CC1
18: Cc1ccc(C)c(N2CCN(c3ccncc3N)CC2)c1
compound no.,13,14,15,16,17,18
Six1-Eya2 blk,8,2,9,-6,?,-27
D2 PAM,-22,-14,8,0,-1,18
CtBP-E1A blk,-18,2,5,-23,-22,.
gsp antagonist,2%,11%,-7%,1%,-19%,6%
gsp agonist,-1%,-5%,?,?,2%,?
D2 agonist,-2.2,0.5,0.2,-4.0,-5.8,-3.6

19: CC(C)c1ccc(NS(=O)(=O)c2ccc(-n3cccn3)cc2)cc1
20: COc1ccc(-c2csc3nc(-c4ccc(C)cc4)oc(=O)c23)cc1OC
21: CC(=O)c1ccc(NC(=O)C2CCN(S(=O)(=O)c3cccnc3)CC2)cc1
22: O=C(c1ccc2c(=O)n(Cc3ccccc3Cl)c(=S)[nH]c2c1)N1CCOCC1
23: CC(=O)Nc1ccc(NC(=O)Cn2nc([N+](=O)[O-])c(Br)c2C)cc1
24: O=C(O)c1cc(-c2ccc(/C=N/Nc3ccc(Cl)cc3)o2)ccc1Cl
compound no.,19,20,21,22,23,24
Six1-Eya2 blk,2,6,9,-2,5,0
D2 PAM,6,1,-6,-7,-6,12
CtBP-E1A blk,1,7,.,5,-9,-5
gsp antagonist,-3%,7%,-10%,-13%,15%,?
gsp agonist,-32%,13%,-1%,10%,5%[15.4 µM],-25%
D2 agonist,7.7,-0.4,-2.2,4.1,-7.4,7.9

Full records, quoted from the list. Order of values: Six1-Eya2 blk, D2 PAM, CtBP-E1A blk, gsp antagonist, gsp agonist, D2 agonist
Results for O=C(O)c1cc(-c2ccc(/C=N/Nc3ccc(Cl)cc3)o2)ccc1Cl = 0, 12, -5, ?, -25%, 7.9
Results for OC(CNCCc1ccc(C(F)(F)F)cc1)COc1ccc2ccccc2c1 (centres undefined) = 2, -14, 2, 11%, -5%, 0.5
Results for Cc1cc(=O)oc2c(C)c(OCC(=O)NCCCN3CCOCC3)ccc12 = -5, -8, -11, 14%, 38%, -8.1
Results for Cc1cccc(-c2cc3nc4c(c(N5CCC6(CC5)OCCO6)n3n2)CCCC4)c1 = 3, 0, -20, 1%, -11%, -0.3

Further results follow:
25: O=C(CCN1C(=O)C2CCCCC2C1=O)Nc1nc(-c2ccc(F)c(F)c2)cs1 (centres undefined)
26: O=C(CNC(=O)C1COc2ccccc2O1)N/N=C/c1cc(Br)c(O)c(Br)c1 (centres undefined)
27: CCOC(=O)C1CCCN(Cc2c(C(=O)N3CCOCC3)nc3ccccn23)C1 (centres undefined)
28: COC(=O)C1C2C=CC3(CN(c4ccc(Cl)c(F)c4)C(=O)C13)O2 (centres undefined)
29: CC(=O)c1cccc(NC(=O)c2sc(Cl)nc2C)c1
30: O=C(CNS(=O)(=O)c1ccccc1)OCC(=O)c1c[nH]c2ccccc12
compound no.,25,26,27,28,29,30
Six1-Eya2 blk,-18,-8,-17,2,4,-2
D2 PAM,0,-7,-3,1,-2,5
CtBP-E1A blk,-24,-19,0,5,-4,.
gsp antagonist,-30%,-17%,2%,4%,-8%,-11%
gsp agonist,13%[15.4 µM],2%,-18%[15.4 µM],-22%,5%,?
D2 agonist,0.4,2.8,-1.7,1.6,-3.9,-1.2

31: O=C(CCN1C(=O)c2ccccc2C1=O)Nc1ccccn1
32: COC(=O)c1cc2ccccc2oc1=O
33: O=C(/C=C/c1ccccc1)N/C(=C/c1ccccc1)C(=O)Nc1cccc(C(=O)O)c1
34: O=C(NNC(=O)c1cc(Cl)nc2ccccc12)c1ccccc1F
35: CCOc1ccccc1C(=O)NC1CC2CCCC(C1)N2Cc1ccc(C)cc1 (centres undefined)
36: Cc1ccc(NC(=O)c2cc(-c3ccc4c(c3)OCO4)on2)cc1C
compound no.,31,32,33,34,35,36
Six1-Eya2 blk,0,7,5,1,7,-5
D2 PAM,13,-9,-17,-4,-19,-4
CtBP-E1A blk,2,4,-7,-11,3,-2
gsp antagonist,7%,16%,.,-10%,14%,-3%
gsp agonist,-26%,?,-4%[15.4 µM],18%[15.4 µM],4%[15.4 µM],-20%
D2 agonist,-1.4,-1.1,-0.8,-6.1,-2.3,-1.2

37: CS(=O)(=O)Oc1ccc2c(c1)O/C(=C\c1cccnc1)C2=O
38: Cc1cc(C)cc(N(C(=O)Cc2cccs2)C(C(=O)NC2CCCC2)c2ccc(C)o2)c1 (centres undefined)
39: CCc1ccc(NS(=O)(=O)c2ccc3c(c2)oc(=O)n3C)cc1
40: COC(=O)C1CCN(CC(N)=O)CC1
41: COc1ccc(-c2csc3ncn(-c4ccccc4)c(=O)c23)cc1OC
42: CCOC(=O)c1ccc(NC(=O)C(=O)NCCc2ccc(OC)cc2)cc1
compound no.,37,38,39,40,41,42
Six1-Eya2 blk,2,-1,1,0,11,3
D2 PAM,-3,-19,-4,4,-6,-3
CtBP-E1A blk,0,16,-1,-1,4,-4
gsp antagonist,-7%,-8%,-10%,-3%,12%,3%
gsp agonist,16%[15.4 µM],-4%,-12%,0%,3%[15.4 µM],?
D2 agonist,-3.4,-1.4,-5.7,-4.0,-3.4,-3.5

43: O=C(Nc1ccccc1)c1ccc2c(c1)OCO2
44: COc1cccc(/C=C2\C=C(c3ccc(C)cc3)OC2=O)c1OC(C)=O
45: Cc1occc(=O)c1OCc1ccc(F)cc1
46: CCOc1ccc(S(=O)(=O)NCc2cccnc2)c2ccccc12
47: CC(=O)Nc1ccc(S(=O)(=O)N2CCC3(CC2)OCCO3)cc1
48: O=C(Nc1ccccc1C(=O)Nc1nncs1)c1ccccc1
compound no.,43,44,45,46,47,48
Six1-Eya2 blk,-7,12,-2,5,9,-24
D2 PAM,-14,-7,-3,-8,-1,0
CtBP-E1A blk,4,-6,7,-11,9,-5
gsp antagonist,-17%,-8%,2%,0%,17%,?
gsp agonist,-4%,-33%[inhibitor],-2%,12%,-3%,18%
D2 agonist,-1.1,-2.5,-1.5,-0.5,0.4,4.0

49: COc1ccc(CN(C(=O)c2snc(C(N)=O)c2N)C(CC(C)C)C(=O)NC2CCCCC2)cc1 (centres undefined)
50: COc1ccc(OC)c(N(/C(N)=N/c2nc(C)cc(C)n2)S(=O)(=O)c2ccc(NC(C)=O)cc2)c1
51: Nc1ccccc1-c1nnc(SCc2ccccc2F)[nH]c1=O
52: CSc1ccc(CN(C)C(=O)c2cc(S(=O)(=O)NCc3ccccc3)ccc2C)cc1
53: CCCCNC(=S)N(C)/N=C/c1ccccc1F
54: CC(C)NC(=O)Nc1cccc2c1O[C@H](CN(C)S(C)(=O)=O)[C@@H](C)CN([C@H](C)CO)C2=O
compound no.,49,50,51,52,53,54
Six1-Eya2 blk,-3,2,-9,-12,33,1
D2 PAM,-3,-2,10,21,-24,.
CtBP-E1A blk,1,0,-6,-1,45,7
gsp antagonist,-7%,3%,-10%,?,-10%,0%
gsp agonist,15%[15.4 µM],3%[15.4 µM],10%,5%,-26%,.
D2 agonist,-2.8,-2.5,-1.0,5.0,2.9,-0.9

55: CCC(C)n1c(=O)c(C(=O)Nc2ccccc2S(N)(=O)=O)c(O)c2ccccc21 (centres undefined)
56: O=C(Nc1ccc2c(c1)OCO2)c1cc2nc(C3CC3)cc(C(F)(F)F)n2n1
57: CC(=O)Nc1cccc(C(=O)Nc2ccccc2N2CCOCC2)c1
58: O=C(COC(=O)c1ccc(F)cc1F)NC(=O)Nc1ccc2c(c1)OCCO2
59: Cc1noc(C)c1COc1ccccc1C(=O)Nc1cccc(S(=O)(=O)N(C)C)c1
60: CCC(C(=O)Nc1cccc(S(=O)(=O)N(C)c2ccccc2)c1)c1ccccc1 (centres undefined)
61: CCC1(c2ccc(F)cc2)NC(=O)N(CC(=O)N2CCN(C(=O)c3cccs3)CC2)C1=O (centres undefined)
62: Cc1cccc(-n2c(Cc3ccccc3)nnc2SCC(=O)N2CCOCC2)c1
63: O=C(NCC1CCCO1)c1ccc(NS(=O)(=O)c2cccc([N+](=O)[O-])c2)cc1 (centres undefined)
compound no.,55,56,57,58,59,60,61,62,63
Six1-Eya2 blk,-1,-2,0,-1,3,0,3,-2,3
D2 PAM,11,-9,-6,-3,12,-13,3,7,-6
CtBP-E1A blk,3,-2,2,1,-14,9,-12,-2,4
gsp antagonist,?,-4%,-6%,6%,-4%,-24%,10%,-2%,-2%
gsp agonist,-3%,2%,-15%,2%,23%,-12%,?,-30%,-8%
D2 agonist,3.2,-0.8,-0.9,-0.3,-4.2,2.5,1.7,-0.9,-5.2
